StopGo reporter = lowers the luciferase signal of an FMDV 2A StopGo reporter; Potency, µM (highest dose often 57.9 µM), for inactives: at the top dose signal change, negative = less light; human cells with a luciferase reporter of 2A StopGo recoding; control for the full effect not named in the record; actives 1.2% (n = 410,000); active = well fitted falling curve with a large enough effect; inconclusive = small, poorly fitted or top-dose-only effect; inactive = no such curve, though single readings can be large or run the other way; tested in HEK293T cells; also: % is scaled to controls: 0 for no effect and ±100 for the full control effect; nearly all actives have a fitted effect of over 45% in size; luciferase light after 4 h
Cruzain Triton = blocks cruzain activity in presence of Triton detergent; Potency, µM, for inactives: max response, negative = inhibition, most hits filed as inhibitors; purified cruzain, Z-FR-AMC fluorescence, 0.01% Triton; actives 0.43% (n = 200,000); active = well fitted curve in the direction sought with a large enough effect; inconclusive = small, poorly fitted or top-dose-only effect, or another doubt; inactive = no such curve, though single readings can be large; an effect the other way counts as inactive or inconclusive;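 also: plate controls were neutral wells for no effect and buffer without enzyme for full effect; nearly all actives have a fitted effect of over 40% in size; top concentration of the series not given in the record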
Target sequence (P25779 123-467 limits assumed): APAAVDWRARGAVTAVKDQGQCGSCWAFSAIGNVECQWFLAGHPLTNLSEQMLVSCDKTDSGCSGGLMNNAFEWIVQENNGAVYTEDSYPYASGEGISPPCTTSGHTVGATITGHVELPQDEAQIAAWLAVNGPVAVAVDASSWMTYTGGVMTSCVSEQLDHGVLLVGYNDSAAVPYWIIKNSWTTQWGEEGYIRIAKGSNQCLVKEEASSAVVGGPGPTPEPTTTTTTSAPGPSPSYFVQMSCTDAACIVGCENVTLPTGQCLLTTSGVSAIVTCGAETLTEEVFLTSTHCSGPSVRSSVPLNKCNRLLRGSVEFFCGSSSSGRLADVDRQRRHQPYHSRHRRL
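15 min RT preincubation of 1.5 nM cruzain with compound, then 2 uM Z-FR-AMC added; kinetic AMC fluorescence, 60 s delta. Triton X-100 0.01%, pH 5.5.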
MARV entry inh = Marburg virus entry inhibition. actives 1.8% (n = 300,000). Marburg virus pseudotyped entry inhibition, cell reporter; control for the full effect not named in the record; about a third of the inactives were read at about 46 µM. Potency, µM (doses to about 37.8 µM), for inactives: top-dose activity change, negative = inhibition, actives largely listed as inhibitors; active = well fitted inhibition curve with a large enough effect; inconclusive = small, poorly fitted or top-dose-only effect, or effect the other way; inactive = flat fitted curve, though single readings scatter; tested in HEK293 cells; about a fifth of its hits are not listed in these tables; also: % is scaled to controls: 0 for no effect and ±100 for the full control effect; luciferase read-out
Lassa entry inh = blocks Lassa virus binding to or entry into cells; actives 1.2% (n = 300,000); AID 540256; Lassa virus pseudotype entry inhibition, cell reporter; control for the full effect not named in the record; Potency, µM (doses to about 37.9 µM), for the others: at the top dose activity change, negative = inhibition, usual class: inhibitors; active means well fitted inhibition curve with a large enough effect; inconclusive means small, poorly fitted or top-dose-only effect, or effect the other way; inactive means flat fitted curve, though single readings scatter; tested in HEK293 cells; also: % is scaled to controls: 0 for no effect and ±100 for the full control effect; nearly all actives have a fitted effect of over 50% in size; luciferase read-out
SARS PLP yeast = blocks SARS-CoV papain-like protease in a yeast assay; S. cerevisiae expressing SARS-CoV PLpro, growth rescue; control for the full effect not named in the record; Potency, µM (titrated, usually from 32.9 µM), for inactives: at the top dose activity, positive = growth rescue; actives 0.19% (n = 330,000); AID 485353; also: 0% is about no effect; nearly all actives have a fitted effect of over 55% in size; growth read by luminescence after 48 h
Cruzain inh noDet = blocks cruzain activity in detergent-free assay; actives 2.3% (n = 200,000); AID 1476; purified cruzain, Z-FR-AMC fluorescence, no detergent; Potency, µM, without a hit: max response, negative = inhibition, most hits filed as inhibitors; P25779; active = well fitted curve in the direction sought with a large enough effect; inconclusive = small, poorly fitted or top-dose-only effect, or another doubt; inactive = no such curve, though single readings can be large; an effect the other way counts as inactive or inconclusive;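 also: plate controls were enzyme without inhibitor for no effect and buffer without enzyme for full effect; nearly all actives have a fitted effect of over 40% in size; top concentration of the series not given in the record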
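Detergent-free condition (0.00005% Triton X-100) in acetate buffer pH 5.5 with DTT. 1.5 nM enzyme and compound were pre-mixed 15 min, then 2 uM Z-FR-AMC substrate added; reaction progress from fluorescence change between first and third reads (60 s).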
NS1 inh = blocks influenza NS1 protein function | Potency, µM (highest dose often 46.1 µM), inactives show at the highest dose activity, positive = more growth | S. cerevisiae slowed by influenza A NS1, growth recovery by OD600 | AID 2326 | actives 0.4% (n = 270,000); also: actives are rising curves; nearly all actives have a fitted effect of over 50% in size
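Growth recovery, yeast-based: influenza A NS1 expressed in S. cerevisiae causes slow growth, and suppressors are detected by OD600. The parent strain without NS1 is used as positive control.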
RE007 growth inh = less growth of the S. pombe RE007 Vpr strain. S. pombe RE007 Vpr strain, BacTiter-Glo ATP luminescence, 24 h; control for the full effect not named in the record. Potency, µM (series often up to 92.2 µM), for inactives: at the highest dose activity change, negative = less growth. actives 0.21% (n = 360,000). AID 651644; active = well fitted falling curve with a large enough effect; inconclusive = small, poorly fitted or top-dose-only effect; inactive = no such curve, though single readings can be large or run the other way;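 also: % is scaled to controls: 0 for no effect and ±100 for the full control effect; nearly all actives have a fitted effect of over 50% in size; the assay follows cell death caused by Vpr and the record does not say whether a fall means rescue or toxicity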
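Fission yeast strain RE007, carrying one chromosomally integrated HIV-1 vpr copy, was seeded at OD 0.01 in PMG+AL medium with 23 nL pinned compound. After 24 h at 30 °C and 99% humidity, viability was read by BacTiter-Glo luminescence.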
* = called active by the depositor; ? = inconclusive; . = not tested or not shown; & = joins results of further samples; [ ] = another dose, or the depositor's remark. Unless noted, calls follow the shape of the dose curve; as a rule, active means well fitted rising curve with a large enough effect; inconclusive means small, poorly fitted or top-dose-only effect; inactive means no such curve, though single readings can be large or run the other way. Potency is read from the fitted curve at half-maximal effect.

Order of results – NS1 inh	Cruzain inh noDet	Cruzain Triton	StopGo reporter	RE007 growth inh	Lassa entry inh	MARV entry inh	SARS PLP yeast
C=CCOC(=O)C1=C(C)NC(=S)C(C#N)(CC=C)C1c1ccccc1Cl (stereo unspecified)
    1.7%	.	.	-9.7%	-10.4%	.	.	-0.1%
O=C(CN1CCN(c2ccc(O)cc2)CC1)Nc1ccc(SC(F)F)cc1
    2.8%	?	-3.1%	-2.4%	4.3%	?	?	-9.2%
CC[C@@H](C)[C@H](CN[C@H](CNC)[C@@H](C)O)NCCc1ccc(OC)cc1
    -6.0%	.	.	-3.9%	-8.6%	.	.	-5.2%
COc1nn(-c2nc(-c3ccccc3)cc(C(F)(F)F)n2)cc1[N+](=O)[O-]
    0.2%	-6.2%	-0.9%	-8.7%	5.1%	0.2%	-4.0%	4.5%
O=C(COC(=O)Cc1cccs1)NCc1ccc(F)cc1
    18.4%	.	.	-8.5%	-13.1%	?	-22.1%	-2.6%
COC(=O)C1=C(C)NC(=S)NC1c1ccc(-c2cc(Cl)ccc2Cl)o1 (stereo unspecified)
    0.6%	.	.	-27.2%	3.6%	?	?	-2.3%
CCN(CC(=O)Nc1ccc2c(c1)OCO2)S(=O)(=O)c1ccccc1
    -4.5%	.	.	1.9%	8.6%	9.4%[46.1 µM]	10.6%[46.1 µM]	-5.8%
O=C(NCc1ccccn1)c1ccc([N+](=O)[O-])cc1
    2.6%	-9.1%	-1.8%	18.6%	-12.3%	-17.4%	?	-10.5%
COc1ccccc1NS(=O)(=O)c1ccc2[nH]c(=S)oc2c1
    .	.	.	-12.2%	7.3%	1.8%	17.3%	3.9%
c1cncc(-c2nc(NCCCn3ccnc3)c3ccccc3n2)c1
    1.5%	.	.	-10.6%	-0.1%	-2.9%	?	3.0%
COc1ccc(OCc2cc(C(=O)NC(C)c3csc(C)n3)no2)c(Cl)c1 (stereo unspecified)
    -21.2%	.	.	5.0%	-6.4%	.	.	-4.9%
O=C(CC1C(=O)NCCN1Cc1cccc(F)c1F)NC1CCCCCC1 (stereo unspecified)
    24.1%	.	.	-6.9%	0.4%	-3.6%	-4.8%	14.1%
CC1CCc2sc(C(=O)OCC(=O)NC(N)=O)cc2C1 (stereo unspecified)
    -1.5%	.	.	-6.4%	-12.8%	?	-4.0%[46.1 µM]	0.4%
Cc1cc(C(=O)Nc2cccc(S(=O)(=O)N3CCCCC3)c2)c2ccccc2n1
    .	.	.	?	2.4%	-20.8%	-20.4%	-1.4%
Cc1ccc(C2Oc3ccccc3C3=C2C(c2cccs2)n2ncnc2N3)cc1 (stereo unspecified)
    8.8%	?	-5.7%	0.0%	-15.3%	?	?	7.7%
CCOC(=O)c1c(NC(=O)/C=C/c2ccc(OC)cc2)sc2c1CCC(C)C2 (stereo unspecified)
    .	-18.7%	-0.8%	9.4%	.	-11.8%[46.1 µM]	.	.
COC(CNC(=O)CCc1c(C)nc2c(c(C)nn2-c2ccc(C)cc2)c1C)OC
    -7.2%	.	.	-29.6%	-6.1%	.	.	0.8%
CN(C)N1C(N)=C(C#N)C(c2cccc(Cl)c2)C2=C1CCCC2=O (stereo unspecified)
    6.6%	.	.	-18.0%	-2.5%	.	.	10.2%
O=C(CSc1nccc(=O)[nH]1)N1CCc2ccccc2C1
    4.1%	-8.3%	1.6%	.	11.1%	3.7%	25.3%	-1.2%
Cc1[nH]nc(N)c1-c1ccccc1
    5.9%	.	.	-10.7%	2.0%	.	.	0.5%
CCOC(=O)C(C)Oc1nc(Oc2ccccc2)nc(N(C)C)n1 (stereo unspecified)
    -48.2%	9.3%	1.4%	-8.6%	14.1%	?	-29.0%	2.2%
COc1cccc(OCC(=O)NNC(=O)C(=O)Nc2ccc(OC)cc2OC)c1
    5.0%	.	.	-15.8%	-21.6%	15.8%[46.1 µM]	-13.5%[46.1 µM]	1.3%
Cc1cc(OCC(=O)Nc2ccc(S(=O)(=O)NC3=NCCCCC3)cc2)c(C(C)C)cc1Cl
    22.5%	19.3%	-4.8%	-5.5%	-2.8%	14.6%	-17.7%	9.6%
COc1ccc(C2CC(O)(c3ccccc3)Oc3cc(OC)cc(OC)c32)cc1 (stereo unspecified)
    28.0%	.	.	-15.1%	0.8%	.	.	-10.5%
CCN(CC)c1ccc(NC(=O)CSC(=O)c2ccccc2)cc1
    .	.	.	5.3%	-11.5%	2.7%	7.3%	-8.5%
CC1CCCCN1C(=O)CSc1nc(C2CC2)nc2ccccc12 (stereo unspecified)
    -11.7%	.	.	?	-4.3%	-15.4%[46.1 µM]	?	-2.3%
COCCN(C(=O)COC(=O)Cc1coc2cc3c(cc12)CCC3)c1c(N)n(Cc2ccccc2)c(=O)[nH]c1=O
    .	.	.	-22.1%	11.8%	-18.3%	-1.2%	-2.9%
CC(C)(C)C(=O)Nc1cccc(OC(F)(F)C(F)Cl)c1 (stereo unspecified)
    -5.3%	.	.	13.8%	-15.0%	?	5.3%[46.1 µM]	-3.6%
CCCCC(CC)CNC(=O)c1ncn[nH]1 (stereo unspecified)
    2.0%	.	.	1.0%	11.8%	.	.	0.3%
CCCCn1c(N)c(N(CC(C)C)C(=O)CN(C)S(=O)(=O)c2ccc(F)cc2)c(=O)[nH]c1=O
    .	.	.	-2.7%	9.9%	3.0%	-3.7%	5.7%
Cc1nc2c(C(=O)NCc3ccc4c(c3)OCO4)c[nH]n2c(=O)c1Cl
    -3.4%	?	-9.2%	27.1%	12.8%	-31.7%[14.3 µM]	-2.4%	3.4%
O=C(COc1ccccc1)NCC(=O)Nc1ccc(S(=O)(=O)NCc2ccco2)cc1
    5.7%	-6.2%	9.1%	-16.7%	-19.6%	-8.0%	3.7%	-5.1%
CC1CCN(C(=O)CCCNC(=O)Cn2cnc3sc4c(c3c2=O)CCCC4)CC1
    8.2%	?	-0.4%	-24.6%	-1.5%	1.6%	-18.3%&-18.3%	1.8%
CCOc1ccc(S(=O)(=O)N(C(C)=O)c2ccc3oc(C)c(C(=O)OC)c3c2)cc1
    .	?	-7.7%	?	.	?	?	.
CC(C)CSc1nnc2c3ccccc3n(C)c2n1
    -120.0%	.	.	54.1%[activator]	-12.7%	?	?	-6.2%
O=C(c1cc(COc2cccc(C(F)(F)F)c2)on1)N1CCSCC1
    -25.8%	.	.	-20.0%	-16.1%	-13.0%	11.8%	-0.9%
Cc1cc(C)c(-n2c(O)c(/C=N/N3CCCCC3c3cccnc3)c(=O)[nH]c2=O)c(C)c1 (stereo unspecified)
    -1.0%	-1.4%	-3.0%	-14.6%	-6.8%	4.8%[46.1 µM]	?	4.7%
Cc1ccc(Cl)c(OC(=O)c2ccc(N3CCOCC3)c([N+](=O)[O-])c2)c1
    15.6%	8.1%	-7.3%	-3.0%	-10.2%	-11.3%	-5.7%	-5.3%
Cc1ccc(NCc2nnc(SCC(=O)N3CCCCC3)n2CC2CCCO2)c(C)c1 (stereo unspecified)
    0.3%	.	.	40.1%[activator]	28.7%	-4.7%	?	.
Cc1sc2ncn(CC(=O)N3CCN(c4ccccc4F)CC3)c(=O)c2c1S(=O)(=O)N1CCC(C)CC1
    .	4.3%	-1.0%	-28.9%	.	18.2%[46.1 µM]	-17.7%[46.1 µM]	.
CN(C)c1ccc(/C=N/c2cc(-c3ccccc3)nn2-c2ccccc2)cc1
    -34.4%	20µM*	-5.1%	56.1%	16.2%	15.9%	0.4%	-8.6%
COc1ccccc1C1C(C(=O)c2cc3ccccc3o2)=C(O)C(=O)N1c1cc(C)on1 (stereo unspecified)
    8.7%	.	.	-13.2%	-5.6%	.	.	2.1%
COc1cccc(CNc2nc3nc(C)cc(C)n3n2)c1
    -2.3%	-12.7%	-4.1%	39.8%[activator]	-11.0%	4.8%	?	12.0%
O=C(CCC1CC(=O)Nc2ccccc21)NCc1ccccc1 (stereo unspecified)
    -5.9%	-27.9%	5.5%	24.1%	3.4%	2.0%	19.8%	10.5%
C/C(=N\NC(=O)c1cc(C)nc2ccccc12)c1ccco1
    0.9%	.	.	-2.4%	-17.5%	?	?	1.1%
CCCc1[nH]n(-c2nc3ccccc3s2)c(=O)c1C=NCCN1CCOCC1
    2.1%	3.5%	-3.3%	44.1%[activator]	14.6%	0.3%	3.0%&3.0%	-0.7%
Cc1nn(-c2ccccc2)c2[nH]c(=O)c(CNCc3ccc4c(c3)OCO4)cc12
    7.94µM*	-2.3%	0.7%	-29.4%	9.4%	1.3%	?	-1.2%
NNC(=O)c1nnn(-c2nonc2N)c1-c1cccs1
    7.3%	-3.2%	8.9%	2.7%	10.5%	3.3%	24.8%	-1.4%
O=C(Nc1ccccc1)c1nnsc1S(=O)(=O)c1ccc(Cl)cc1
    -153.7%	-8.5%	-6.8%	?	6.31µM*	-29.0%	?	-39.3%
O=C(NCc1ccc2c(c1)OCO2)c1c[nH]c2ccc(S(=O)(=O)N3CCOCC3)cc2c1=O
    -0.2%	5.5%	-3.5%	-11.9%	-14.5%	0.517µM*	-2.5%&3.1%	0.3%
Cc1ccccc1OCC(=O)Nc1cccc(NC(=O)c2ccco2)c1
    -14.5%	-2.9%	-4.1%	?	?	-26.1%	-0.1%	-23.1%
COC(=O)CCCC1=CC2=CC(=O)C(C)(OC(=O)c3cccs3)C(=O)C2=CN1CCCOC(C)C (stereo unspecified)
    2.6%	.	.	3.3%	1.6%	.	36.6%&36.6%[14.2 µM]	-3.5%
COc1ccc2cc(C(=O)NC3CCCCC3)c(=O)oc2c1
    9.2%	2.3%	4.6%	15.0%	-2.9%	1.6%	23.1%	-1.7%
CCc1ccc(Nc2nnc(SC3CCOC3=O)s2)cc1 (stereo unspecified)
    4.1%	2.2%	-3.1%	5.3%	1.0%	13.9%	?	11.9%
COc1cc2cc(C(=O)N(C)C3CCS(=O)(=O)C3)[nH]c2cc1OC (stereo unspecified)
    10.3%	.	.	3.6%	-12.6%	.	.	3.5%

Rows are unselected; overall some 4.7% were active at least once.
